Vaccinia Venus: vaccinia inhibition (Venus reporter). 330,000 compounds, 0.46% hits. Vaccinia virus Venus reporter expression, fluorescence. AID 720580. Potency, µM (highest dose often 36.5 µM), inactives show at the top dose activity change, negative = inhibition, actives largely listed as inhibitors; active means well fitted inhibition curve with a large enough effect; inconclusive means small, poorly fitted or top-dose-only effect; inactive means no such curve, though single readings can be large or run the other way; tested in A549 cells; also: nearly all actives have a fitted effect of over 30% in size; inactives centre near -10
Vaccinia mCherry: vaccinia inhibition (mCherry reporter); Vaccinia virus mCherry reporter infection, fluorescence; about a quarter of the inactives have no number; Potency, µM (highest dose often 36.5 µM), for inactives: at the top dose activity change, negative = inhibition, usual class: inhibitors; 310,000 compounds, 0.63% hits; AID 720579; active = well fitted inhibition curve with a large enough effect; inconclusive = small, poorly fitted or top-dose-only effect; inactive = no such curve, though single readings can be large or run the other way; tested in A549 cells; also: nearly all actives have a fitted effect of over 35% in size; inactives centre near -10
Starred values were filed as active, the others as inactive; i = inactive; u = inconclusive; x = no result given; & = joins results of further samples. % is scaled to controls: 0 for no effect and ±100 for the full control effect; potency is read from the fitted curve at half-maximal effect.

Molecule	Vaccinia Venus	Vaccinia mCherry
CCN(CC)c1ccc(C(=O)OCC(=O)N(C(C)C)C(C)C)cc1	-1%	-15%
N#CC(=C1C=CC(=NO)C(Cl)=C1)c1ccc(Cl)cc1	-9%	-7%
CNc1ccccc1C(=O)OCC(=O)c1ccccc1	-20%	-9%
O=C(c1ccc(Br)cc1)C(CN1CCOCC1)c1ccccc1 (stereo not given)	-19%	i
CCCCCCOC(=O)c1ccc(OC(=O)c2cccnc2)cc1	2%	i
COc1ccc(C(=O)CN(Cc2ccccc2)C2=NCCS2)cc1	-5%	-12%
O=c1oc(CCO)cc2ccc(Br)cc12	u	-19%
O=C(COC(=O)c1cc(=O)[nH]c2ccccc12)NC(=O)NC1CCCCC1	-6%	-16%
CCOC(=O)Cc1csc(NC(=O)c2ccc(S(=O)(=O)N3CCCC3)cc2)n1	-23%	-13%
O=C(NCC(c1ccco1)S(=O)(=O)c1ccc(Cl)cc1)c1ccccc1F (stereo not given)	-8%	-5%
O=C(Nc1ccc([N+](=O)[O-])cc1)c1cc2ccccc2nc1Cl	-1%	6%
C=C(C)COc1ccc2c(c1)CCC1C2CCC2(C)C(=O)C(=NO)CC12 (stereo not given)	-6%	-12%
CCC(=O)NCCc1sc2nc(-c3ccc(OC)cc3)nn2c1C	-9%	3%
Cc1nc2ccc(S(=O)(=O)N(C)CC(=O)N3CCc4ccccc4C3)cc2s1	-10%	i
O=c1cc(CO)oc(CN2CCN(Cc3ccccc3)CC2)c1O	5%	-6%
CC(=O)C1=C(C)Nc2ncnn2C1c1cccc(Br)c1 (stereo not given)	-14%	-17%
COc1ccc(NC(=O)CSCC(=O)Nc2cccc(S(=O)(=O)N3CCCCCC3)c2)cc1	-26%	-24%
O=C(COC(=O)CCC(=O)c1ccc(F)cc1)Nc1ccc(Cl)cn1	-14%	-18%
O=C1CN(C(=O)COc2ccc(Cl)cc2)C(c2ccccc2)c2cc(Br)ccc2N1 (stereo not given)	-11%	-6%
COc1cc(NC(=O)CSc2nc3ccccc3nc2Cc2ccccc2OC)cc(OC)c1	-12%	-18%
COc1cc(S(=O)(=O)NCc2ccccn2)c(OC)cc1Cl	-5%	u
C=CCOc1ccc(Cl)cc1CNCCCN1CCOCC1	-12%	-19%
CCOC(=O)c1cc(-c2ccccc2)n(CCC(=O)O)c1C	-20%	-2%
COc1ccc(Nc2cc(C)nc(N3CCOCC3)n2)cc1	-6%	-13%
CO[C@H]1C=CO[C@@]2(C)Oc3c(C)c(O)c4c(O)c(c(/C=N/N5CCN(C)CC5)c(O)c4c3C2=O)NC(=O)/C(C)=C\C=C[C@H](C)[C@H](O)[C@@H](C)[C@@H](O)[C@@H](C)[C@H](OC(C)=O)[C@@H]1C	-8%	-14%
COC(=O)C(C)Sc1nc2c(c(=O)[nH]c(=O)n2C)n1CCCc1ccccc1 (stereo not given)	-4%	x
O=S(=O)(c1ccccc1)N1CC2CC(Br)C(Br)CC21 (stereo not given)	-12%	i
CC(C)(C)C(=O)NNC(=O)CCCOc1ccc(Cl)cc1Cl	-5%	-15%
COc1ccccc1N1CCN(CCCn2c(=S)[nH]c3ccccc3c2=O)CC1	-10%	i
COc1cc(-c2nnc(CSc3nnc4nc(C)cc(C)n34)o2)cc(OC)c1OC	12%	9%
O=C(c1[nH]c(C(F)(F)F)nc1-c1ccccc1)N1CCN(c2ccccn2)CC1	-10%	i
CCCN(Cc1cc2cccc(C)c2[nH]c1=O)C(=O)c1cccc(Cl)c1	-16%	i
Cc1ccc(NC(=O)C2CCCN(S(=O)(=O)c3cn(C(C)C)cn3)C2)c(C)c1 (stereo not given)	-11%	-15%
CN(Cc1ccco1)C(=O)CSc1nc(C2CC2)n(-c2ccccc2)n1	-5%	i
CCn1c(SCC(=O)Nc2ccc(C)cc2Br)nnc1-c1nonc1NC(C)=O	-8%	-2%
CCOc1ccccc1NC(=O)Cn1c(=O)ccc2cc(S(=O)(=O)N3CCCC3)ccc21	-12%	-10%
COc1ccc(/C(N)=N/OC(=O)/C=C/c2ccccc2)cc1	-9%	i
COC(=O)c1ccc2nc3c(cc2c1)[C@@H]1CCN2C(=O)CCC[C@H](C3)[C@H]12	-8%&-13%	i
COc1cccc(C(=O)C2CCCN(Cc3cccc(-n4cccn4)c3)C2)c1 (stereo not given)	-24%	u
Cc1ccccc1C(=O)NC(=S)Nc1ccc(S(=O)(=O)N(C)c2ccccc2)cc1	-19%	-2%
Cc1ccc(NC(=O)C2CCN(c3ncccn3)CC2)cc1F	-8%	-3%
CN1CCN(c2ccc(S(=O)(=O)N3CCCCC3)cc2NC(=O)CSCc2ccccc2)CC1	-11%	-6%
Cc1nc(N/C(N)=N/S(=O)(=O)c2ccccc2)nc2ccccc12	-1%	u
CC(C)CN1C(=O)c2ccc(C(=O)Nc3c[nH]c(=O)[nH]c3=O)cc2C1=O	-3%	6%
COC(=O)c1ccc(/C=N/NS(=O)(=O)c2cc(C)ccc2C)cc1	-16%	-1%
O=C(Nc1ccc2c(c1)OCCO2)C1CCCN(S(=O)(=O)c2cccs2)C1 (stereo not given)	-25%	x
CCOc1nc(OCC)nc(-n2cc(-c3ccccc3)nn2)n1	-14%	-14%
CC(C)(C)C1CCC(CN2C(Nc3ccccc3)=NC[C@@H]2Cc2ccccc2)CC1 (stereo not given in full)	u	u
COc1ccc(Oc2nc(SC)nc3ccsc23)cc1	u	-13%
Cc1c(/C=N/N2C(=O)C3C4C=CC(C4)C3C2=O)c2ccccc2n1C (stereo not given)	-3%	-3%
O=C(COc1ccc(C(=O)c2ccccc2)cc1)NC1CCCCCC1	-15%	-23%
Cc1noc(C)c1C(=O)N1CCC2(CC1)Oc1ccc(F)cc1C(=O)C21CC(c2ccc(Cl)cc2)=NO1 (stereo not given)	-16%	-8%
COc1ccc(Br)cc1CNC(=O)CCc1cn(Cc2ccc(C)cc2)c2ccccc12	-21%	-7%
CCOC(=O)/C(=C/c1ccc(OC(=O)c2ccccc2)cc1)C(C)=O	-10%	-10%
CCOC(=O)C1=C(C)N=C2SC(C(=O)OC)=CC(=O)N2C1c1ccc(OC)cc1 (stereo not given)	2%	-12%
c1ccc(Sc2cccc3ccccc23)c(CNC2=NCCN2)c1	-28%	-5%
CN(Cc1ccc(C(F)(F)F)cc1)C(=O)C1CCC(=O)N(C2CC2)C1 (stereo not given)	-13%	i
Cc1cc(NC(=O)COc2ccccc2C)no1	1%	i
COc1ccc(-c2cc([C@H]3[C@H]4C=CC[C@@H](C)[C@@H]4C(=O)N3Cc3ccccc3)ccc2F)cc1	-12%	7%
CCCCC1=CC2=C(c3ccco3)C(=O)C(C)(OC(=O)c3ccc(OC)cc3)C(=O)C2=CN1Cc1ccc2c(c1)OCO2 (stereo not given)	-7%	-21%

Some values from the results shown:
Vaccinia mCherry with CCn1c(SCC(=O)Nc2ccc(C)cc2Br)nnc1-c1nonc1NC(C)=O stands at -2%
Vaccinia Venus with COc1ccccc1N1CCN(CCCn2c(=S)[nH]c3ccccc3c2=O)CC1 stands at -10%

Later entries
Molecule	Vaccinia Venus	Vaccinia mCherry
Cc1nnc(NC(=O)c2ccc(S(=O)(=O)N3CCCCCC3)cc2)o1	-14%	-5%
Cc1ccc(CNC(=O)C2CCC(CNS(=O)(=O)c3ccc(C)cc3)CC2)cc1 (stereo not given)	-22%	i
Cc1ccc(C)c(NC(=S)NCc2ccc3c(c2)OCO3)c1	-8%	-13%
COc1ccc(O)c(C(=O)C2c3ccccc3C(=O)N2c2ccc(C)cc2)c1 (stereo not given)	-2%	-18%

In the list so far, 16 have an aryl methoxy group:
Molecule	Vaccinia Venus	Vaccinia mCherry
COc1ccc(C(=O)CN(Cc2ccccc2)C2=NCCS2)cc1	-5%	-12%
CCC(=O)NCCc1sc2nc(-c3ccc(OC)cc3)nn2c1C	-9%	3%
COc1ccc(NC(=O)CSCC(=O)Nc2cccc(S(=O)(=O)N3CCCCCC3)c2)cc1	-26%	-24%
COc1cc(NC(=O)CSc2nc3ccccc3nc2Cc2ccccc2OC)cc(OC)c1	-12%	-18%
COc1cc(S(=O)(=O)NCc2ccccn2)c(OC)cc1Cl	-5%	u
COc1ccc(Nc2cc(C)nc(N3CCOCC3)n2)cc1	-6%	-13%
COc1ccccc1N1CCN(CCCn2c(=S)[nH]c3ccccc3c2=O)CC1	-10%	i
COc1cc(-c2nnc(CSc3nnc4nc(C)cc(C)n34)o2)cc(OC)c1OC	12%	9%
COc1ccc(/C(N)=N/OC(=O)/C=C/c2ccccc2)cc1	-9%	i
COc1cccc(C(=O)C2CCCN(Cc3cccc(-n4cccn4)c3)C2)c1 (stereo not given)	-24%	u
COc1ccc(Oc2nc(SC)nc3ccsc23)cc1	u	-13%
COc1ccc(Br)cc1CNC(=O)CCc1cn(Cc2ccc(C)cc2)c2ccccc12	-21%	-7%
CCOC(=O)C1=C(C)N=C2SC(C(=O)OC)=CC(=O)N2C1c1ccc(OC)cc1 (stereo not given)	2%	-12%
COc1ccc(-c2cc([C@H]3[C@H]4C=CC[C@@H](C)[C@@H]4C(=O)N3Cc3ccccc3)ccc2F)cc1	-12%	7%
CCCCC1=CC2=C(c3ccco3)C(=O)C(C)(OC(=O)c3ccc(OC)cc3)C(=O)C2=CN1Cc1ccc2c(c1)OCO2 (stereo not given)	-7%	-21%
COc1ccc(O)c(C(=O)C2c3ccccc3C(=O)N2c2ccc(C)cc2)c1 (stereo not given)	-2%	-18%
